High-throughput results from PubChem BioAssay.
NOMO-1 viab = STK33 inhibitor candidate reducing NOMO-1 cell viability. NOMO-1 AML viability, CellTiter-Glo luminescence, 72 h. inhibition, % (no concentration beside the values). hit rate 7.5% among 37,000;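 active means most replicates above 80%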;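 further: wells of about 30 µL received 25 nL stock; 0% = median of vehicle wells and 100% = reference inhibitor level; the first replicate is given; inactives centre near 10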
An asterisk follows results filed as active. A portion of the library; count on the stated rates, not on these rows.

SMILES	NOMO-1 viab
Cc1noc(C)c1S(=O)(=O)Nc1ccc2c(c1)CC(=O)N([C@@H](C)CO)C[C@@H](C)[C@@H](CN(C)S(=O)(=O)c1ccccc1)O2	-3
O=C(Oc1ccc(OC(=O)c2ccco2)cc1)c1ccco1	58
Cc1noc(C)c1NC(=O)Nc1cccc2c1O[C@H](CN(C)C(=O)Nc1c(C)noc1C)[C@@H](C)CN([C@@H](C)CO)C2=O	-2
O=C(CSc1n[nH]c(-c2ccc(Cl)cc2)n1)NC1CC2CCC1C2 (stereo unspecified)	8
C[C@H](CO)N1C[C@H](C)[C@@H](CN(C)CC2CC2)Oc2c(NC(=O)c3ccc(-c4nccs4)cc3)cccc2C1=O	57
COc1cc(NC(=O)COc2cc(C)c(C)cc2C)c(C(=O)O)cc1OC	0
COc1ccc(S(=O)(=O)Nc2ccc3c(c2)C(=O)N([C@H](C)CO)C[C@@H](C)[C@@H](CN(C)S(=O)(=O)c2ccccc2)O3)cc1	23
COc1ccc(NC(=O)Nc2ccc3c(c2)C(=O)N([C@H](C)CO)C[C@H](C)[C@H](CN(C)C(=O)CCCN(C)C)OCCCC[C@@H](C)O3)cc1	1
COC(=O)c1ccccc1NC(=O)CSc1nc2c(c(C(F)(F)F)n1)CCCC2	16
COC(=O)C1(Cc2ccc(O)c(CC=C(C)C)c2)OC(=O)C(OC)=C1c1ccc(O)c(O)c1 (stereo unspecified)	60
Cc1ccc(C(=O)c2ccc(Oc3ccccc3)cc2)cc1	26
Cc1noc(C)c1NC(=O)Nc1cccc2c1O[C@@H](CN(C)Cc1ccc(-c3ccccc3)cc1)[C@@H](C)CN([C@H](C)CO)C2=O	26
C[C@H](CO)N1C[C@H](C)[C@H](CN(C)S(=O)(=O)c2cn(C)cn2)Oc2ccc(NC(=O)NC3CCCCC3)cc2CC1=O	-16
C[C@H]1CN([C@@H](C)CO)C(=O)c2cccc(NC(=O)Nc3ccc(F)cc3)c2O[C@H]1CN(C)C	-1
O=C(NCCCn1ccnc1)c1c(F)cccc1F	13
COc1ccc(-c2nnc(SCC(=O)Nc3ccc(Cl)cc3Cl)n2-c2ccccc2)cc1OC	18
C[C@H](CO)N1C[C@H](C)[C@@H](CN(C)C(=O)Nc2ccc(F)cc2)Oc2ccc(NS(=O)(=O)c3ccc(F)cc3)cc2C1=O	14
CNC[C@H]1Oc2c(NC(=O)Nc3ccc(C(F)(F)F)cc3)cccc2C(=O)N([C@H](C)CO)C[C@@H]1C	-2
Cc1noc(C)c1S(=O)(=O)N(C)C[C@@H]1Oc2c(NC(=O)c3cnccn3)cccc2C(=O)N([C@@H](C)CO)C[C@@H]1C	29
CC(C)NC(=O)Nc1cccc2c1O[C@H](CN(C)Cc1ccc(C(=O)Nc3ccccc3N)cc1)[C@H](C)CN([C@H](C)CO)C2=O	119*
C[C@H]1CN([C@@H](C)CO)C(=O)c2cccc(NC(=O)c3ccc(-c4nccs4)cc3)c2O[C@H]1CN(C)Cc1ccc(C(F)(F)F)cc1	72
O=C1C(=O)N(CCCn2ccnc2)C(c2ccc(Cl)cc2)C1C(=O)c1cccs1 (stereo unspecified)	-13
O=C(Nc1ccccc1[N+](=O)[O-])c1cccc(S(=O)(=O)Nc2ccc(F)cc2)c1	-11
C[C@@H]1CCCCO[C@H](CN(C)C(=O)Nc2ccccc2)[C@@H](C)CN([C@H](C)CO)C(=O)c2cc(NC(=O)c3ccncc3)ccc2O1	26

2 of the compounds above, with each value named.
O=C(NCCCn1ccnc1)c1c(F)cccc1F
  NOMO-1 viab: 13
COc1ccc(-c2nnc(SCC(=O)Nc3ccc(Cl)cc3Cl)n2-c2ccccc2)cc1OC
  NOMO-1 viab: 18

Next structures follow:
SMILES	NOMO-1 viab
C[C@@H]1CN([C@@H](C)CO)C(=O)Cc2cc(NS(C)(=O)=O)ccc2O[C@@H]1CN(C)C	-6
C[C@@H]1CN([C@H](C)CO)C(=O)c2cccc(NC(=O)C3CCCCC3)c2O[C@H]1CN(C)C(=O)Nc1ccccc1	14
Cc1noc(C)c1S(=O)(=O)N(C)C[C@H]1Oc2ccc(NC(=O)CCC(F)(F)F)cc2CC(=O)N([C@H](C)CO)C[C@H]1C	32
C[C@H]1CN([C@@H](C)CO)C(=O)c2cccc(NS(=O)(=O)c3ccc(Cl)cc3)c2O[C@@H]1CN(C)C(=O)Nc1cccc2ccccc12	2
COc1ccc(C(C)=O)cc1CSc1nc(C)cc(C)n1	5
C[C@H]1CN([C@@H](C)CO)C(=O)c2cc(NC(=O)Nc3ccc(C(F)(F)F)cc3)ccc2O[C@H]1CN(C)S(C)(=O)=O	8
N=c1ncn(CC(O)CO)c2nc(Br)[nH]c12 (stereo unspecified)	-5
O=C(CSc1nnc(-c2ccccc2Cl)o1)c1ccc2c(c1)OCCO2	10
O=C(CC1OCCN(Cc2ccccc2)C1=O)Nc1cccc(Cl)c1 (stereo unspecified)	22
Cc1ccc(-c2nc3ccccc3s2)cc1NC(=O)COc1cccc(C)c1C	89*
COc1ccc(S(=O)(=O)N(C)C[C@@H]2Oc3ccc(NC(=O)CCCN(C)C)cc3CC(=O)N([C@H](C)CO)C[C@H]2C)cc1	3
C[C@@H]1CCCCO[C@H](CN(C)C)[C@@H](C)CN([C@H](C)CO)C(=O)c2cc(NS(=O)(=O)c3cccs3)ccc2O1	8
C=CCc1c(C)[nH]c(=S)[nH]c1=O	-20
Cc1cccc(NS(=O)(=O)c2cc(C(=O)Nc3ccccc3C(=O)N3CCOCC3)ccc2Cl)c1	3
C[C@H]1CN([C@@H](C)CO)C(=O)c2cc(NC(=O)NC3CCCCC3)ccc2O[C@@H]1CN(C)C(=O)Nc1ccc(F)cc1	9
Cc1ccc(Cl)cc1NC(=O)Cn1cnc2ccccc2c1=O	28
CC1CCC2C(C)(C)C(=O)CC[C@]2(C)C12Cc1c(O)cc3c(c1O2)CN(C(CCC(=O)O)C(=O)O)C3=O (stereo partly specified)	1
Cc1cccc(-n2c(SCC(N)=O)nnc2-c2ccncc2)c1C	-12
Cc1ccc(S(=O)(=O)N(C)C[C@@H]2Oc3c(NC(=O)Nc4ccc(F)cc4)cccc3C(=O)N([C@@H](C)CO)C[C@@H]2C)cc1	57
O=C(Nc1cc(Cl)ccc1Cl)C1CN(S(=O)(=O)c2ccccc2)CCN1S(=O)(=O)c1ccccc1 (stereo unspecified)	10
C[C@@H]1CN([C@H](C)CO)C(=O)c2cc(NC(=O)Nc3cccc4ccccc34)ccc2O[C@@H]1CN(C)Cc1ccc(C(=O)Nc2ccccc2N)cc1	105*
CC(=O)c1cccc(N(CC(=O)Nc2ccc(C)cc2)S(C)(=O)=O)c1	1
C[C@@H]1CN([C@H](C)CO)C(=O)c2cccc(NC(=O)c3nc4ccccc4s3)c2O[C@H]1CN(C)C(=O)Nc1ccc(C(F)(F)F)cc1	17
CCN(CC(=O)Nc1ccccc1C)S(=O)(=O)c1ccc(Br)cc1	18
O=C(Nc1ccccc1C(=O)NC1CCCCC1)c1ccc(Cl)c(S(=O)(=O)N2CCOCC2)c1	53
C[C@@H]1CN([C@@H](C)CO)C(=O)Cc2cc(NC(=O)Nc3ccc(C(F)(F)F)cc3)ccc2O[C@@H]1CN(C)Cc1ccc2c(c1)OCO2	122*
Cc1nnc(SCC(=O)n2c3c(c4ccccc42)CCCC3)n1C	13
Cc1ccc(NC(=O)CNS(=O)(=O)c2ccccc2)cc1Cl	8
C[C@@H]1CCCCO[C@@H](CN(C)Cc2ccc(C(F)(F)F)cc2)[C@@H](C)CN([C@H](C)CO)C(=O)c2cc(NC(=O)Nc3ccc(C(F)(F)F)cc3)ccc2O1	107*
C[C@@H]1CN([C@@H](C)CO)C(=O)c2cccc(NC(=O)NC3CCCCC3)c2O[C@@H]1CN(C)S(=O)(=O)c1ccc(Cl)cc1	43
C[C@@H]1CN([C@H](C)CO)C(=O)c2cccc(NS(C)(=O)=O)c2O[C@H]1CN(C)S(=O)(=O)c1cccs1	-11
O=C(COc1ccc(Cl)cc1Cl)Nc1ccc(Br)cc1C(=O)O	-17
C[C@@H]1CN([C@@H](C)CO)C(=O)c2cc(NC(=O)Cc3ccccc3)ccc2O[C@H]1CN(C)S(=O)(=O)c1cn(C)cn1	-13
C[C@H](CO)N1C[C@H](C)[C@H](CN(C)C(=O)NC2CCCCC2)Oc2c(NC(=O)c3cnccn3)cccc2C1=O	-4
C[C@H]1CN([C@@H](C)CO)C(=O)Cc2cc(N(C)C)ccc2O[C@H]1CN(C)C(=O)NC1CCCCC1	32
O=C(CSc1ccccn1)Nc1cccc(F)c1	-5
CNC[C@H]1Oc2ccc(NC(=O)NC(C)C)cc2C(=O)N([C@@H](C)CO)C[C@H]1C	-4
C[C@@H]1CN([C@@H](C)CO)C(=O)Cc2cc(NC(=O)Nc3cccc4ccccc34)ccc2O[C@@H]1CN(C)S(=O)(=O)c1cn(C)cn1	22
C[C@H](CO)N1C[C@H](C)[C@H](CN(C)Cc2ccc(-c3ccccc3)cc2)Oc2ccc(N(C)C)cc2C1=O	70
Cc1noc(C)c1S(=O)(=O)N(C)C[C@@H]1Oc2ccc(NC(=O)C3CC3)cc2CC(=O)N([C@@H](C)CO)C[C@@H]1C	-1
C[C@@H]1CN([C@@H](C)CO)C(=O)c2cccc(NC(=O)c3ccncc3)c2O[C@H]1CN(C)Cc1ccc(Oc2ccccc2)cc1	32
C[C@@H]1CN([C@H](C)CO)C(=O)c2cccc(NC(=O)Nc3ccc(F)cc3)c2O[C@@H]1CN(C)Cc1ccc(Cl)c(Cl)c1	31
Cc1ccc(S(=O)(=O)Nc2ccc3c(c2)CC(=O)N([C@H](C)CO)C[C@H](C)[C@H](CN(C)Cc2ccc(-c4ccccc4)cc2)O3)cc1	84*
COc1ccc(NC(=O)N(C)C[C@@H]2OCCCC[C@@H](C)Oc3ccc(NS(C)(=O)=O)cc3C(=O)N([C@H](C)CO)C[C@@H]2C)cc1	2
Cc1ccc(S(=O)(=O)Nc2cccc3c2O[C@@H](CN(C)C(=O)Nc2ccc4c(c2)OCO4)[C@H](C)CN([C@H](C)CO)C3=O)cc1	-3
C[C@@H]1CN([C@H](C)CO)C(=O)c2cc(NC(=O)CCC(F)(F)F)ccc2O[C@H]1CN(C)C(=O)Nc1ccc2c(c1)OCO2	-3
CC1(C)C(=S)NC(c2ccccc2)N1O (stereo unspecified)	17
CCCCN(C(=O)Nc1cccc2ccccc12)C1CCS(=O)(=O)C1 (stereo unspecified)	-4
COc1ccc(S(=O)(=O)N(C)C[C@H]2Oc3ccc(NC(=O)CCCN(C)C)cc3C(=O)N([C@@H](C)CO)C[C@H]2C)cc1	-7
COc1ccc(NC(=O)N(C)C[C@H]2Oc3ccc(NC(=O)Nc4c(C)noc4C)cc3C(=O)N([C@@H](C)CO)C[C@@H]2C)cc1	13
Cc1noc(C)c1NC(=O)Nc1ccc2c(c1)C(=O)N([C@H](C)CO)C[C@H](C)[C@@H](CN(C)Cc1ccc(C(=O)O)cc1)OCCCC[C@@H](C)O2	5
Cc1noc(C)c1NC(=O)N(C)C[C@@H]1Oc2ccc(N(C)C)cc2CC(=O)N([C@@H](C)CO)C[C@@H]1C	-6
COc1ccc(NC(=O)Nc2ccc3c(c2)C(=O)N([C@@H](C)CO)C[C@H](C)[C@@H](CN(C)Cc2ccc4c(c2)OCO4)O3)cc1	25
O=C(Nc1cc2c(ccc3ccccc32)oc1=O)c1ccccc1	15
C[C@@H]1CN([C@@H](C)CO)C(=O)c2cc(NC(=O)c3ccncc3)ccc2O[C@H]1CN(C)S(=O)(=O)c1ccc(Cl)cc1	-5
C[C@@H]1CN([C@H](C)CO)C(=O)Cc2cc(NC(=O)Nc3cccc4ccccc34)ccc2O[C@H]1CN(C)CC1CC1	-5
O=C(CSc1nc(-c2ccccc2)cs1)Nc1ccccc1	-10
C[C@@H]1CN([C@H](C)CO)C(=O)Cc2cc(NS(=O)(=O)c3ccc(F)cc3)ccc2O[C@@H]1CN(C)C(=O)Nc1ccc(C(F)(F)F)cc1	25
Cc1ccc(S(=O)(=O)Nc2ccc3c(c2)CC(=O)N([C@@H](C)CO)C[C@H](C)[C@H](CN(C)Cc2ccc(-c4ccccc4)cc2)O3)cc1	49
CCn1c2ccccc2n2c(SCc3nc4ccccc4[nH]3)nnc12	17

Later entries:
SMILES	NOMO-1 viab
C[C@@H]1CN([C@H](C)CO)C(=O)c2cc(NC(=O)CCCN(C)C)ccc2O[C@H]1CN(C)Cc1ccc2c(c1)OCO2	-6
O=[N+]([O-])c1cccc(NC(=S)Nc2nn(Cc3ccc(Cl)c(Cl)c3)cc2Br)c1	16
C[C@@H]1CN([C@H](C)CO)C(=O)Cc2cc(NC(=O)Cc3cn(C)c4ccccc34)ccc2O[C@H]1CN(C)C(=O)Nc1ccccc1	-7
Cc1cccc(NC(=O)CSc2nnc(-c3cccc(Br)c3)n2-c2ccccc2)c1	32
CNCC(O)c1ccc(OC(=O)C(C)(C)C)c(OC(=O)C(C)(C)C)c1 (stereo unspecified)	13

In the list so far, these have an aryl thioether with sulfur outside any ring.
SMILES	NOMO-1 viab
O=C(CSc1n[nH]c(-c2ccc(Cl)cc2)n1)NC1CC2CCC1C2 (stereo unspecified)	8
COC(=O)c1ccccc1NC(=O)CSc1nc2c(c(C(F)(F)F)n1)CCCC2	16
COc1ccc(-c2nnc(SCC(=O)Nc3ccc(Cl)cc3Cl)n2-c2ccccc2)cc1OC	18
COc1ccc(C(C)=O)cc1CSc1nc(C)cc(C)n1	5
O=C(CSc1nnc(-c2ccccc2Cl)o1)c1ccc2c(c1)OCCO2	10
Cc1cccc(-n2c(SCC(N)=O)nnc2-c2ccncc2)c1C	-12
Cc1nnc(SCC(=O)n2c3c(c4ccccc42)CCCC3)n1C	13
O=C(CSc1ccccn1)Nc1cccc(F)c1	-5
O=C(CSc1nc(-c2ccccc2)cs1)Nc1ccccc1	-10
CCn1c2ccccc2n2c(SCc3nc4ccccc4[nH]3)nnc12	17
Cc1cccc(NC(=O)CSc2nnc(-c3cccc(Br)c3)n2-c2ccccc2)c1	32
